High-throughput results: PubChem BioAssay, National Center for Advancing Translational Sciences (NCATS)
NS1 inh – qHTS Assay for Inhibitors of Influenza NS1 Protein Function; S. cerevisiae slowed by influenza A NS1, growth recovery by OD600; Potency, µM (doses to about 46.1 µM), for the others: at the highest dose activity, positive = more growth; 0.4% of 270,000 active; AID 2326, 2010; also: actives are rising curves; nearly all actives have a fitted effect of over 50% in size
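S. cerevisiae expressing influenza A NS1, grown in glucose, washed, then diluted 1:100 into pH 6.0 -URA galactose medium with 23 nl compound. Growth recovery read as OD600; NS1-free strain serves as control.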
Cruzain noTriton – qHTS Assay for Promiscuous and Specific Inhibitors of Cruzain (without detergent); 2.3% of 200,000 active; Cruzipain (Trypanosoma cruzi), P25779; purified cruzain, Z-FR-AMC fluorescence, no detergent; Potency, µM, without a hit: max response, negative = inhibition, hits mostly inhibitors; active = well fitted curve in the direction sought with a large enough effect; inconclusive = small, poorly fitted or top-dose-only effect, or another doubt; inactive = no such curve, though single readings can be large; an effect the other way counts as inactive or inconclusive;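 also: plate controls were enzyme without inhibitor for no effect and buffer without enzyme for full effect; nearly all actives have a fitted effect of over 40% in size; top concentration of the series not given in the record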
Target sequence (P25779 123-467 limits assumed): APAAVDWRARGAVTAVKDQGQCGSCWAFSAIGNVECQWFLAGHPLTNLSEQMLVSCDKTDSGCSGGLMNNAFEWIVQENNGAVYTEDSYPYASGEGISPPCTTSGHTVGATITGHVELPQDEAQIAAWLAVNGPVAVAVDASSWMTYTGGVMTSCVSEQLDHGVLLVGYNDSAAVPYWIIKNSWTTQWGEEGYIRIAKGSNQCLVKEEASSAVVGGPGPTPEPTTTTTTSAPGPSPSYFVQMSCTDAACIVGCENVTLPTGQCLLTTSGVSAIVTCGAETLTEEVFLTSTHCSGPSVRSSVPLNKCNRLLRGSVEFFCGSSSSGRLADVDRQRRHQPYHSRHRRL
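Detergent-free condition (0.00005% Triton X-100) in acetate buffer pH 5.5 with DTT. 1.5 nM enzyme and compound were pre-mixed 15 min, then 2 uM Z-FR-AMC substrate added; reaction progress from fluorescence change between first and third reads (60 s).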
2A StopGo – High Throughput Screening for Foot and Mouth Disease Virus Antivirals; human cells with a luciferase reporter of 2A StopGo recoding; control for the full effect not named in the record; Potency, µM (highest dose often 57.9 µM), inactives show at the highest dose signal change, negative = less light; 1.2% of 410,000 active; active = well fitted falling curve with a large enough effect; inconclusive = small, poorly fitted or top-dose-only effect; inactive = no such curve, though single readings can be large or run the other way; tested in HEK293T cells; also: % is scaled to controls: 0 for no effect and ±100 for the full control effect; nearly all actives have a fitted effect of over 45% in size; luciferase light after 4 h
Lassa entry inh – qHTS for Inhibitors of binding or entry into cells for Lassa Virus. Potency, µM (highest dose often 37.9 µM), without a hit: top-dose activity change, negative = inhibition, usual class: inhibitors. Lassa virus pseudotype entry inhibition, cell reporter; control for the full effect not named in the record. 1.2% of 300,000 active; active means well fitted inhibition curve with a large enough effect; inconclusive means small, poorly fitted or top-dose-only effect, or effect the other way; inactive means flat fitted curve, though single readings scatter; tested in HEK293 cells; also: % is scaled to controls: 0 for no effect and ±100 for the full control effect; nearly all actives have a fitted effect of over 50% in size; luciferase read-out
RE007 growth inh – qHTS Assay for Inhibitors of the HIV-1 protein Vpr; S. pombe RE007 Vpr strain, BacTiter-Glo ATP luminescence, 24 h; control for the full effect not named in the record; Potency, µM (top dose mostly 92.2 µM), without a hit: top-dose activity change, negative = less growth; 0.21% of 360,000 active; AID 651644, 2012; active = well fitted falling curve with a large enough effect; inconclusive = small, poorly fitted or top-dose-only effect; inactive = no such curve, though single readings can be large or run the other way;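 also: % is scaled to controls: 0 for no effect and ±100 for the full control effect; nearly all actives have a fitted effect of over 50% in size; the assay follows cell death caused by Vpr and the record does not say whether a fall means rescue or toxicity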
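Fission yeast RE007 carrying one integrated HIV-1 vpr copy, seeded at OD 0.01 in PMG+AL medium with 23 nL pinned compound. Grown 24 h at 30 degrees; viability read by BacTiter-Glo luminescence after 5 min.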
MARV entry inh – qHTS for inhibitors of binding or entry into cells for Marburg Virus; 1.8% of 300,000 active; Marburg virus pseudotyped entry inhibition, cell reporter; control for the full effect not named in the record; about a third of the inactives were read at about 46 µM; Potency, µM (highest dose often 37.8 µM), for inactives: at the top dose activity change, negative = inhibition, most hits filed as inhibitors; active = well fitted inhibition curve with a large enough effect; inconclusive = small, poorly fitted or top-dose-only effect, or effect the other way; inactive = flat fitted curve, though single readings scatter; tested in HEK293 cells; about a fifth of its hits are not listed in these tables; also: % is scaled to controls: 0 for no effect and ±100 for the full control effect; luciferase read-out
Cruzain Triton – qHTS Assay for Promiscuous and Specific Inhibitors of Cruzain (with detergent). Cruzipain (Trypanosoma cruzi), P25779. purified cruzain, Z-FR-AMC fluorescence, 0.01% Triton. Potency, µM, for inactives: max response, negative = inhibition, actives largely listed as inhibitors. 0.43% of 200,000 active. AID 1478, 2009; active = well fitted curve in the direction sought with a large enough effect; inconclusive = small, poorly fitted or top-dose-only effect, or another doubt; inactive = no such curve, though single readings can be large; an effect the other way counts as inactive or inconclusive;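 also: plate controls were neutral wells for no effect and buffer without enzyme for full effect; nearly all actives have a fitted effect of over 40% in size; top concentration of the series not given in the record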
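Z-FR-AMC hydrolysis (2 uM substrate) by cruzain (1.5 nM) monitored kinetically at ex 360/em 450 nm after 15 min room-temperature compound exposure; 0.01% Triton X-100, pH 5.5, 5 mM DTT.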
SARS PLP yeast – qHTS of Yeast-based Assay for SARS-CoV PLP. S. cerevisiae expressing SARS-CoV PLpro, growth rescue; control for the full effect not named in the record. Potency, µM (series often up to 32.9 µM), for inactives: top-dose activity, positive = growth rescue. 0.19% of 330,000 active. AID 485353, 2010; also: 0% is about no effect; nearly all actives have a fitted effect of over 55% in size; growth read by luminescence after 48 h
Numbers without * were called inactive; ? = inconclusive; / = no result given; & = joins results of further samples; [ ] = another dose, or the depositor's remark. Unless noted, calls follow the shape of the dose curve; as a rule, active means well fitted rising curve with a large enough effect; inconclusive means small, poorly fitted or top-dose-only effect; inactive means no such curve, though single readings can be large or run the other way. Potency is read from the fitted curve at half-maximal effect.

SMILES	NS1 inh	Cruzain noTriton	2A StopGo	Lassa entry inh	RE007 growth inh	MARV entry inh	Cruzain Triton	SARS PLP yeast
COc1ccc(-c2cc3c(=O)n(CC(=O)NCCCN4CCC(N5CCCCC5)CC4)nc(C)n3n2)cc1	-4%	/	-7%	/	-7%	/	/	0%
CCC(=NCCCO)c1c(O)n(-c2ccc(OC)cc2)c(=O)[nH]c1=O	?	4%	2%	?	4%	2%	2.3%	3%
O=S(=O)(c1ccccc1)N1CCN(C(=S)NCCc2ccccc2)CC1	-2%	/	30%[activator]	-19%[46.1 µM]	12%	-2%[46.1 µM]	/	4%
COc1ccc(/C(O)=C2/C(=O)C(=O)N(Cc3ccco3)C2c2cccs2)cc1 (stereo not drawn)	7%	0%	/	3%	4%	-1%	-0.8%	4%
CCOc1ccc(S(=O)(=O)N2CCN=C2c2ccccc2)c(C)c1C	-5%	/	-16%	5%	6%	?	/	2%
CCOC(=O)c1sc(=S)n(C)c1NC(=O)c1ccc(C(C)(C)C)cc1	-11%	/	25µM*	?	-1%	14µM*	/	-3%
N=c1ccccn1CC(O)COc1ccccc1 (stereo not drawn)	3%	-5%	-3%	0%	5%	?	1.2%	15%
CCCCNc1nc(CC)c2c(c1C#N)CCCC2	6%	-22%	0%	-17%	-16%	-6%	-3.0%	10%
CC1=C(C(=O)OC(C)C)[C@@H](c2ccc(C)o2)NC(=O)N1	-3%	-5%	-8%	3%	-4%	8%	-1.1%	8%
O=C1CC(NC23CC4CC(CC(C4)C2)C3)C(=O)N1c1ccc2c(c1)OCO2 (stereo not drawn)	4%	-4%	0%	1%	-4%	2%	8.7%	-9%
COc1ccc(/C=C2/N=C3CCCCCN3C2=O)cc1	/	/	67%[activator]	0%	-6%	2%[46.1 µM]	/	-1%
O=C1Nc2cc(C(=O)NCC3CCCO3)ccc2S/C1=C/c1ccccc1F (stereo not drawn)	11%	/	-28%	/	-14%	/	/	-23%
O=C(NCCc1c[nH]c2ccccc12)OCCSS(=O)(=O)O	1%	/	-9%	?	9%	-23%[46.1 µM]	/	2%
O=C1c2cccc3cccc(c23)C(=O)N1Nc1ccccc1	0%	/	-14%	-22%	6%	15%[46.1 µM]	/	2%
Cc1cccc(N(Cc2cc3ccc(C)cc3[nH]c2=O)S(=O)(=O)c2ccccc2)c1	28%	/	-2%	/	6%	/	/	4%
CCOCCN1CCN(c2c(C)c(C)nc3cc(-c4cc(OC)cc(OC)c4)nn23)CC1	-12%	-5%	-13%	-32%	3%	-1%&-29%	-2.6%	-20%
NC(=S)Nc1cccc(Cl)c1	1%	/	13%	?	12%	6%[46.1 µM]	/	-2%
O=C(Nc1ccc2c(c1)OCO2)c1cc(Cl)ccn1	/	/	-4%	?	?	?	/	9%
CC(=O)Nc1ccc(Cl)c(-c2nc3ncccc3o2)c1	2%	/	-3%	11%[46.1 µM]	4%	0%[46.1 µM]	/	1%
O=C(CSCc1cnn(-c2ccccc2)c1-n1cccc1)NCc1ccccc1Br	/	8%	-15%	7%[46.1 µM]	/	6%[46.1 µM]	2.0%	/
COc1ccc(/C=C/C(=O)c2ccc(O)cc2)cc1COc1ccc(F)cc1	-7%	-20%	/	?	-16%	-4%	3.8%	-4%
COc1ccc(CNC(=O)C2CCN(S(=O)(=O)c3ccc4c(c3)NC(=O)CO4)CC2)cc1	-6%	/	-14%	24%[46.1 µM]	8%	-15%[46.1 µM]	/	1%
O=C(Nc1nc2ccccc2s1)C1CCN(S(=O)(=O)c2cc([N+](=O)[O-])ccc2Cl)CC1	-2%	/	35µM*	/	-10%	/	/	-1%
COC(=O)/C(=C(/F)SCC(C)=O)C(F)(F)F	-3%	-5%	/	/	/	8%	-3.1%	-3%
O=C(CSc1nnc(NC(=O)c2ccccc2Cl)s1)NC1CC1	4%	/	39%[activator]	?	1%	8%[46.1 µM]	/	-4%
CCNc1ccc(N=Nc2c(C)n(C)n(-c3ccccc3)c2=O)cc1	/	/	26%	26%	-12%	?	/	1%
CC1(C)Cc2c(sc3nc4n(c(=N)c23)CCC4)CO1	7%	-4%	-19%	-3%	-24%	7%&7%	-0.4%	2%
Cc1c(C(=O)N2CCCCC2)c(S(=O)(=O)N2CCc3ccccc32)c(C)n1C	8%	/	-2%	-7%[46.1 µM]	10%	?	/	?
CCCCCC(=O)N=Nc1c(O)[nH]c2ccc([N+](=O)[O-])cc12	9%	?	-8%	4%	0%	26%	-1.6%	-3%
COc1ccc(Cl)cc1NC(=O)c1sc(-n2nc(C)c(Cc3ccccc3)c2C)nc1C	/	-12%	12%	14%[46.1 µM]	/	-11%[46.1 µM]	-1.3%	/
COc1ccc(N2CCN(C(=O)c3cccc(S(=O)(=O)N4CCc5ccccc54)c3)CC2)cc1	/	/	-6%	?	15%	?	/	-2%
O=C(Nc1ccnn1C1CCN(Cc2cccc(OCCO)c2)CC1)C1CCCC1	-18%	/	28%	6%[46.1 µM]	12%	-20%[46.1 µM]	/	16%
COc1cc(CNC2CCCCCCC2)cc(Cl)c1OCC(N)=O	2%	/	-18%	/	-11%	/	/	6%
COC(=O)c1cc(C(=O)c2cc(Br)ccc2O)coc1=N	/	/	-13%	-24%[46.1 µM]	-2%	0%[46.1 µM]	/	0%
CCOc1ccccc1NC(=O)C1(S(=O)(=O)c2ccc(Cl)cc2)CC1	14%	/	-27%	1%[46.1 µM]	6%	-4%[46.1 µM]	/	-5%
c1ccc(COC2CCCN(Cc3nc(Cc4ccccc4)no3)C2)cc1 (stereo not drawn)	-11%	/	8%	/	-10%	/	/	0%
O=C(Cn1c(-c2cscn2)nc2ccccc21)Nc1ccc(Cl)cc1	19%	?	-25%	-26%	4%	-18%	-3.3%	-12%
Cc1ccc(/C(=N\O)c2oc3c(C)c4oc(=O)cc(C)c4cc3c2C)cc1	3%	?	?	0.37µM*	-1%	2.9µM*	-10%	-20%
Cc1ccc(CSc2ccc(-c3ccco3)nn2)cc1	18%	4%	10%	0%	-9%	?	-5.3%	-12%
CCOc1cc(NC(=O)C2CCCCC2)c(OCC)cc1NC(=O)c1ccco1	7%	-8%	4%	-27%	-9%	4%	3.1%	-5%
Cc1cc(NC(=O)/C=C/C(=O)N(c2ccccc2C)C(C(=O)NC2CCCC2)c2ccc(F)cc2)no1 (stereo not drawn)	12%	26%	/	?	-11%	?	-3.8%	2%
O=C(CNC(=O)c1ccccc1F)OCc1cc(=O)n2nc(C3CC3)sc2n1	/	0%	-13%	9%[46.1 µM]	/	/	-0.2%	/
Cc1ccc2cc(CN(CCCO)S(=O)(=O)c3cccc4nsnc34)c(=O)[nH]c2c1C	7%	?	-9%	2%	1%	-5%&-9%	-2.4%	-4%
O=C(NC(=S)Nc1ccccc1N1CCCCC1)c1ccco1	-20%	7%	22µM*	-10%	17%	0%	-7.3%	-29%
COc1ccc(C(=O)NCC2CCCN2S(=O)(=O)c2cccs2)cc1OC (stereo not drawn)	/	/	-16%	-11%	-11%	?	/	1%
CC(=O)Nc1ccc(N(C(=O)c2ccco2)C(C(=O)NC2CCCC2)c2ccc(N3CCOCC3)cc2)cc1 (stereo not drawn)	-11%	/	-1%	-15%[46.1 µM]	0%	-1%[46.1 µM]	/	1%
O=C(NCCNS(=O)(=O)c1ccc(C(F)(F)F)cc1)N1CCOCC1	-1%	/	12%	-8%[46.1 µM]	-4%	20%[46.1 µM]	/	-1%
CC(C)(C)NC(NC(=O)Cc1ccccc1)C(Cl)(Cl)Cl (stereo not drawn)	1%	-5%	12%	8%	5%	-14%	2.2%	-17%
COc1ccc(-c2ccc(C#N)c(SCC(=O)Nc3sc4c(c3C#N)CCC4)n2)cc1	19%	13µM*	7%	4%	22%	3%[46.1 µM]	-11%	5%
COCCCNc1nc(NCc2ccccc2OC)c2cnn(C)c2n1	/	2%	?	17%[46.1 µM]	/	/	-1.7%	/
Cc1c(Cl)cccc1NC(=S)C(=C([O-])c1ccc(Cl)s1)[n+]1ccccc1	/	/	-5%	-18%[46.1 µM]	-21%	?	/	/
CSc1ncc(CN2CCCCC2C(=O)Nc2ccc(Oc3ccccc3)nc2)cn1 (stereo not drawn)	-6%	/	-16%	-5%	-6%	5.6µM*	/	12%
COc1ccccc1CCC(=O)NNC(=O)c1ccccc1	11%	/	43%[activator]	14%[46.1 µM]	-25%	17%[46.1 µM]	/	1%
C=CCNS(=O)(=O)c1ccc2nsnc2c1	7%	-10%	/	3%	3%	-23%	1.1%	-3%
CCC(C)NC(=O)C(Cc1ccccc1)NS(=O)(=O)c1ccc2c(c1)oc(=O)n2C (stereo not drawn)	-1%	/	25%	/	-6%	/	/	1%
S=c1[nH]nc(CN2CCCCC2)n1Cc1ccccc1	12%	/	-13%	?	-20%	2%[46.1 µM]	/	-1%
Cc1nn(-c2cccc(Cl)c2)c2nc(C(F)(F)F)[nH]c(=O)c12	-21%	-8%	?	16%	-3%	10µM*	-2.6%	-21%
CCC1CN(S(=O)(=O)c2ccc3c(c2)NC(=O)CC(=O)N3)c2cc(Cl)ccc2O1 (stereo not drawn)	12%	-6%	?	?	1%	/	-8.7%	3%
CCOC(=O)C1C(c2cccs2)NC(=O)N(C)C1(O)C(F)(F)F (stereo not drawn)	11%	9%	-4%	-7%	10%	7%	2.8%	12%
CCN(c1ccc(OC)cc1)S(=O)(=O)c1ccc(-c2cc(C)no2)s1	-25%	/	-21%	/	7%	/	/	6%
Cc1nn(C)c2c1c(-c1ccccc1)cc(=O)n2CC(=O)Nc1ccccc1C(F)(F)F	/	-2%	-16%	?	/	/	-1.5%	/
CCOc1ccc(CCNC(=O)CCc2c(C)nc3c4c(C)cc(C)nc4nn3c2C)cc1	/	-2%	-9%	-6%[46.1 µM]	/	-19%[46.1 µM]	-0.1%	/
